Assay outcomes (PubChem)
HSV augment: increases HSV replication in cells. maximum fold increase. actives 0.005% (n = 220,000). HSV replication augmentation in cells, fold increase;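 active = peak rise of 1.5-fold or more in the series; tested in PC3 cells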;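 also: first round at 10 µM; read as green reporter fluorescence; hits show the peak of a series up to 25 µM; 1 = signal of infected wells without compound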
GALR2 agonist: activates the human galanin receptor 2 | O43603 | GALR2-expressing cells, agonist activation read-out | activation, %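 (tested at 5 µM)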 | actives 0.48% (n = 140,000) | AID 803;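 active = above mean plus 3 SD of all compounds, about 5% in these data, not always enough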;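 also: 0% = vehicle buffer wells and 100% = reference agonist at full effect; tested in CHO reporter cells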
PKD1 inh: blocks activity of human protein kinase D1; PKD1 kinase fluorescence polarization assay; inhibition, %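 (about 10 µM by stock and volumes)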; actives 0.056% (n = 200,000); AID 797;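 active = inhibition of 50% or more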;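 also: controls were vehicle for no effect and a reference inhibitor for full effect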
Target sequence (Q15139 whole entry, looked up): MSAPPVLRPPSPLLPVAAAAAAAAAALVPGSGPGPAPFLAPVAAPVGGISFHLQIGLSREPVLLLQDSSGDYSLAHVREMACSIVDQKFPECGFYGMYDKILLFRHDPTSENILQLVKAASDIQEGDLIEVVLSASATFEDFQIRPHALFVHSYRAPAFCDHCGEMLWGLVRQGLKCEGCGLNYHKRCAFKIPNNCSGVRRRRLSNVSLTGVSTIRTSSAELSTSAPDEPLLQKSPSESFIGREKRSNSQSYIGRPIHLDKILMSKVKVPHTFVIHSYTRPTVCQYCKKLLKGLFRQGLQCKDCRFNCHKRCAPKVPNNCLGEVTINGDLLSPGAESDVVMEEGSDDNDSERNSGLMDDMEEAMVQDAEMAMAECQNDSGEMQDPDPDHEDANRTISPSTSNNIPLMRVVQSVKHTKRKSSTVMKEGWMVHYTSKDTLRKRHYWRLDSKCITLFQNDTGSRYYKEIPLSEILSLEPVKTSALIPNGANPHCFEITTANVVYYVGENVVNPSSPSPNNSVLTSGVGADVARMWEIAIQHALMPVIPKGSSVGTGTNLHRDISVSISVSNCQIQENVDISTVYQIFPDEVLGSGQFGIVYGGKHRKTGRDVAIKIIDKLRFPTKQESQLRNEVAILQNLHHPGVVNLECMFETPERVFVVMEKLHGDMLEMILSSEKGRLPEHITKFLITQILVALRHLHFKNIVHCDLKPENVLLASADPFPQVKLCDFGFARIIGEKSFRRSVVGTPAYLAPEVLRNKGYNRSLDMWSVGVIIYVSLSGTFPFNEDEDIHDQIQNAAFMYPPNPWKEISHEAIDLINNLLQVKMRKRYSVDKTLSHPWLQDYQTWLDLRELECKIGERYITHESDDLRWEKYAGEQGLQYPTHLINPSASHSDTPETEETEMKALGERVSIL
RGS16-Gao HTS: modulates binding between human RGS16 and Galphao; binding response (% of control), % at 10 µM; bead-based flow cytometry RGS16-Galphao binding, fluorescence; actives lie on both sides; AID 1441; O15492+P09471; actives 0.38% (n = 220,000);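 active = below 25% or above 175%, edge rows of some plates excepted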;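 also: Galphao activated by GDP with aluminum fluoride before binding; 100% = wells without compound and 0% = beads without RGS; some results beyond the cut were filed as inactive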
INS promoter inh: TRM-6 insulin promoter activity inhibition. actives 0.9% (n = 130,000). inhibition, % at 2 µM. TRM-6 cells (human fetal islet line), insulin promoter-eGFP reporter, imaging; reporter expression induced with tamoxifen;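 active = inhibition above the mean plus 3 SD, with well images judged a real hit on visual review, cut at about 60% in these data, passing the limit was not always enough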
INS promoter inh cell count: second read-out of INS promoter inh, no call of its own (marks repeat the call); normalized cell count, %; measured here: cell count, toxicity; reference of the scale not given here;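 cells exposed to compound for 48 h; stained nuclei by imaging scaled within each plate; lower means fewer cells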
HSV augment primary fold: also measured in HSV augment; calls as there; fold increase; compound at 10 µM; measured here: primary screen fold increase 10 uM; tested in PC3 cells;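 GFP signal in the first replicate; 1 = infected wells without compound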
* marks the source's active call; other numbers are inactive results; i = inactive; nt = not tested or not shown.

SMILES	HSV augment	HSV augment primary fold	GALR2 agonist	PKD1 inh	RGS16-Gao HTS	INS promoter inh	INS promoter inh cell count
CCCCN1C(=O)c2ccc(C(=O)Nc3ccc(C)c(S(=O)(=O)N(C)C)c3)cc2C1=O	i	0.9	-1.7	3	93	nt	nt
CC(C)N(CCNCc1nnc(-c2ccccc2)o1)C(C)C	i	1	nt	-3	98	nt	nt
CC(C)(C)c1ccc(C(=O)NC(=S)Nc2ccc(N3CCOCC3)cc2)cc1	i	1.1	-2.4	-3	86	49	70
c1ccc(-c2cc(-c3nc4ccccc4[nH]3)c3ccccc3n2)cc1	i	0.75	-2.4	-8	107	22	95
O=S(=O)(NCCCN1CCOCC1)c1ccc2ccccc2c1	i	0.96	nt	-4	116	-10	180
Cc1ccc(C2C(C#N)=C(N)Oc3cc(C)oc(=O)c32)o1 (stereo not given)	i	0.96	nt	-3	99	-17	84
C=C(C)C(=O)Nc1nnc(-c2ccccc2C)s1	i	0.92	nt	1	95	25	78
O=C(c1cc(-c2ccc(Cl)cc2Cl)on1)N1CCOCC1	i	1.1	-3.2	-6	99	-10	129
COc1ccccc1NC(=O)Nc1ccncc1	i	1.1	nt	-5	97	-82	124
COc1cc(OC)c2c(-c3ccccc3)cc(=O)oc2c1C(CCN1CCCC(C)C1)c1ccc2c(c1)OCO2 (stereo not given)	i	0.53	nt	nt	100	nt	nt
N#CCSc1nc2ccccc2c2nc3ccccc3n12	i	0.57	0.6	5	105	-23	107
Cc1cc(C(F)(F)F)nc(Nc2nc(C)c3ccccc3n2)n1	i	1.1	-1.1	0	76	-182	149
CC(C)CC(NC(=O)C(CC(C)C)NC(=O)OC(C)(C)C)C(=O)O (stereo not given)	i	1	-5.3	-5	nt	21	65
Cc1ccc(NC(=O)Nc2nnc(-c3ccncc3)s2)cc1	i	0.62	nt	3	102	31	121
CC(=O)c1ccc(OCC(C)Oc2ccc(C#N)cc2)cc1 (stereo not given)	i	0.94	nt	nt	105	nt	nt

Among those listed so far, two contain a halogen:
SMILES	HSV augment	HSV augment primary fold	GALR2 agonist	PKD1 inh	RGS16-Gao HTS	INS promoter inh	INS promoter inh cell count
O=C(c1cc(-c2ccc(Cl)cc2Cl)on1)N1CCOCC1	i	1.1	-3.2	-6	99	-10	129
Cc1cc(C(F)(F)F)nc(Nc2nc(C)c3ccccc3n2)n1	i	1.1	-1.1	0	76	-182	149

Next section
SMILES	HSV augment	HSV augment primary fold	GALR2 agonist	PKD1 inh	RGS16-Gao HTS	INS promoter inh	INS promoter inh cell count
CC1Cc2ccccc2N1S(=O)(=O)c1cnc[nH]1 (stereo not given)	i	1.1	-1.3	-2	102	nt	nt
Cc1nn(C(CC(=O)O)C(=O)O)c(C)c1Br (stereo not given)	i	1	-2.5	1	60	-456	45
COCCNC(=S)NC(=O)c1ccc(C(C)(C)C)cc1	i	0.88	nt	4	102	6	128
O=C(NCc1ccc2c(c1)OCO2)c1cc(-c2ccncc2)nc2ccccc12	i	0.87	nt	nt	108	nt	nt
O=C(COC(=O)c1cc(-c2ccccc2)nc2ccccc12)NCC1CCCO1 (stereo not given)	i	1	nt	-3	105	44	162
C/C=C(/C)C(=O)Nc1cccc(C2=NOC3(C2)C[C@H](C(N)=O)N(C(=O)COc2ccc(Cl)cc2)C3)c1 (stereo not given in full)	i	0.97	nt	nt	100	nt	nt
ClC(Cl)(c1nnnn1-c1ccccc1)c1nnnn1-c1ccccc1	i	0.74	0.2	3	35	-19	60
COC(=O)c1cc(NC(=O)CCc2c(C)nc3ncnn3c2C)cc(C(=O)OC)c1	i	0.76	-0.6	13	112	-14	98
Cc1ccc(CNC(=O)C2CCCN(c3nc4ccsc4c(=O)s3)C2)cc1 (stereo not given)	i	0.97	nt	2	268	nt	nt
Cc1nc(N)sc1C(=O)N/N=C/c1c[nH]c2ccccc12	i	0.84	-4.1	0	107	nt	nt
CCOC(=O)CCCCC(=O)c1[nH]c(=O)[nH]c1CSc1nnc2c3cc(Br)ccc3n(C)c2n1	i	1	nt	1	101	nt	nt
CCOC(=O)c1ccccc1NC(=O)c1cc(S(=O)(=O)N2CCOCC2)ccc1F	i	1	-1.8	7	107	-10	88
CN1CCN(C2=NCCO2)CC1	i	1.2	nt	nt	96	nt	nt
CC(NC(=O)CCc1nnc(-c2ccc(-c3ccccc3)cc2)o1)c1nccs1 (stereo not given)	i	0.93	nt	-6	107	22	184
Cc1cccc(OCC(=O)Nc2ccc3c(c2)nc(CN2CCCCC2)n3C)c1	i	0.68	nt	nt	90	nt	nt

Compounds above that contain a Cl atom, in the order listed:
SMILES	HSV augment	HSV augment primary fold	GALR2 agonist	PKD1 inh	RGS16-Gao HTS	INS promoter inh	INS promoter inh cell count
O=C(c1cc(-c2ccc(Cl)cc2Cl)on1)N1CCOCC1	i	1.1	-3.2	-6	99	-10	129
C/C=C(/C)C(=O)Nc1cccc(C2=NOC3(C2)C[C@H](C(N)=O)N(C(=O)COc2ccc(Cl)cc2)C3)c1 (stereo not given in full)	i	0.97	nt	nt	100	nt	nt
ClC(Cl)(c1nnnn1-c1ccccc1)c1nnnn1-c1ccccc1	i	0.74	0.2	3	35	-19	60

(continued)
SMILES	HSV augment	HSV augment primary fold	GALR2 agonist	PKD1 inh	RGS16-Gao HTS	INS promoter inh	INS promoter inh cell count
O=C(Nc1ccccc1Cl)C1CCCN(S(=O)(=O)c2ccc(F)cc2)C1 (stereo not given)	i	1.1	-1.6	-6	108	-36	79
Cc1cc2cc(CN3C(=O)c4ccccc4C3=O)ccc2[nH]1	i	0.97	-1.3	0	100	0	98
CCOC(=O)C1=C(CS(=O)(=O)c2ccc(C)cc2)NC(=O)NC1c1ccc(O)c(OC)c1 (stereo not given)	i	0.9	nt	nt	102	nt	nt
CC(=O)c1c(C)n(-c2ccccc2)c2ccc(OCC(O)CN3CCOCC3)cc12 (stereo not given)	i	1	-1.5	0	100	18	113
N#C/C(=C\c1c(F)cccc1Cl)S(=O)(=O)c1ccccn1	i	0.98	nt	nt	105	nt	nt
Cc1cc(C)nc(NN=C(c2ccccc2)c2ccccc2)n1	i	1.1	-2.0	4	103	nt	nt
COc1c(Br)cc(Br)cc1/C=C1/C(=O)N=C(N)N1C	i	0.9	nt	3	104	0	143
CCn1c(COc2ccc(Cl)cc2)nnc1SCC(=O)Nc1ccc2c(c1)OCCO2	i	0.99	-1.2	-1	84	nt	nt
COc1ccnc(Oc2ccc(F)cc2)c1C(=O)N/C=N/OCc1cccc(F)c1	i	0.94	nt	-2	102	nt	nt
Cc1cccc(NC(=S)NC(=O)CCc2ccccc2)c1	i	0.89	-3.2	0	103	6	81
N=c1c2c(-c3ccccc3)c(-c3ccccc3)n(Cc3ccco3)c2ncn1CCN1CCOCC1	i	0.65	-2.5	-17	103	-10	96
CCCS(=O)(=O)Nc1c(C(=O)OC)[nH]c2ccccc12	i	1	-1.5	-11	103	14	151
O=C(Nc1cccc(C(=O)N2CCOCC2)c1)c1ncn[nH]1	i	0.99	-0.3	0	100	-31	153
COc1ccccc1Nc1nc(-c2sc(NC(=O)C(C)(C)C)nc2C)cs1	i	0.85	0.8	0	97	-16	58
CC1CCN(CCCNC(=O)c2n[nH]c(=O)c3ccccc23)CC1	i	1	-1.5	-11	96	nt	nt
CCNC(=O)Cc1ccc(Br)cc1	i	1.1	-2.2	7	107	-30	86
CCCOc1ccc(N2C(=O)CC(N(CCOC34CC5CC(CC(C5)C3)C4)C(C)=O)C2=O)cc1 (stereo not given)	i	0.95	nt	3	99	nt	nt
O=C1NC(=S)S/C1=C1\Sc2ccccc2N1CCCS(=O)(=O)O	i	0.94	-0.5	10	36	-27	73
O=C(Nc1ccccc1)NC1(C(=O)NCc2ccco2)CCCCC1	i	0.8	-3.4	18	90	-28	132
CCn1nnnc1SCC(=O)N1CCOCC1	i	0.98	-1.9	-8	101	-3	85
O=C(CCc1ccccc1)Nc1nc2ccc(S(=O)(=O)N3CCOCC3)cc2s1	i	0.93	2.4	-3	100	-331	78
O=C(O)COc1ccc(-c2nnn(Cc3ccccc3F)n2)cc1	i	0.87	-1.2	3	98	31	84
C/C=N\NC(=O)CNC(=O)CNC(=O)c1ccccc1	i	1	nt	-6	97	nt	nt
COc1ccc(OC)c(NC(=O)Cc2coc3cc(C)cc(C)c23)c1	i	0.91	1.0	3	102	-31	74
Fc1ccc(N2CCN(Cc3ccccn3)CC2)cc1	i	0.97	nt	-2	102	nt	nt
O=C1CC(N2CCSCC2)C(=O)N1c1ccc(F)cc1 (stereo not given)	i	1.1	nt	nt	77	nt	nt
CC1(C(=O)NCc2cccnc2)CCC(=O)N1Cc1cccs1 (stereo not given)	nt	nt	0.0	1	102	nt	nt
O=[N+]([O-])c1ccc(Oc2cccc(F)c2)c2ccncc12	i	0.76	0.0	4	101	0	134
COc1ccc(CC2(CO)CCN(Cc3cccc4nccnc34)CC2)cc1	i	1.1	nt	3	99	23	126
Cc1ccc(CNC(=O)CSCc2ccccc2)cc1	i	0.94	nt	-2	99	nt	nt
O=C(NCC1CC1)c1onc(CSc2ccncc2)c1C(=O)NCC1CC1	i	0.66	nt	nt	99	nt	nt
O=C(O)C1CCCCN1S(=O)(=O)c1ccccc1 (stereo not given)	i	0.98	-0.8	-8	117	-10	58
N#Cc1ccc2ccn(CC(=O)N3CCCc4ccccc43)c2c1	i	0.76	-1.9	-6	106	nt	nt
NC(=O)Cn1c(=O)n(CCc2ccccc2)c(=O)c2c3c(sc21)CCCC3	i	1	0.0	1	106	nt	nt
Cc1ccc(-c2n[nH]c(=S)n2/N=C/c2c(C)nn(-c3ccccc3)c2C)cc1	i	0.64	3.0	-2	100	7	176
Cc1ncsc1CCOC(=O)c1ccccc1	i	1.1	nt	-8	101	14	133
O=C(O)Cn1nnnc1-c1ccc(F)cc1	i	0.91	-1.6	-11	61	0	79
Cc1[nH]c2ccc(Br)cc2c(=O)c1CN1CCOCC1	i	0.98	-2.8	5	101	nt	nt
O=c1c(Cl)c(Nc2cccc(Cl)c2)cnn1-c1nc2ccccc2s1	i	0.86	-0.7	5	9	-4	87
COc1cc(C(=O)Nc2nnc(CC(C)(C)C)s2)c([N+](=O)[O-])cc1OC	i	1	-0.9	-10	106	29	146
O=C(CSc1nnc(C2COc3ccccc3O2)o1)Nc1ccc(F)cc1Cl (stereo not given)	i	1.1	nt	6	111	-20	98
COc1ccc(C(=O)O/N=C(\N)Cc2ccc(Cl)cc2Cl)cc1OC	i	0.6	0.3	-9	101	8	145
COc1ccccc1NC(=O)CN1CCCCC1	i	0.97	-0.7	-1	102	14	139
O=S(=O)(c1cccc(-c2nc3n(n2)Cc2ccccc2-3)c1)N1CCCCC1	i	0.86	-2.1	-2	95	3	120
CCOC(=O)c1c(/N=C/c2cc(OC)cc([N+](=O)[O-])c2O)sc(C)c1C	i	1.3	-0.7	-12	100	48	104
CC(C)(C)NC(=O)Cn1nnc(-c2ccccc2NC(=O)c2cnccn2)n1	i	1	-2.3	-2	99	-8	116
COc1ccc(C)cc1Nc1nc(-c2c[nH]c3ccccc23)cs1	i	1.1	-1.8	-3	95	-29	126
CCCCSc1ccc(NC(=O)c2cccnc2)cc1	i	0.81	-0.4	-3	98	-33	88
OC[C@@H](O)[C@H](O)C(/C=N/Nc1ccccc1)=N\Nc1ccccc1	i	0.91	nt	nt	103	nt	nt
Cc1cc2c(cc(C(=O)N3CCC(C(=O)NC4CCCC4)CC3)n2Cc2c(F)cccc2Cl)o1	i	1.2	nt	nt	94	nt	nt
O=C(COc1ncnc2ccccc12)Nc1ccc(S(=O)(=O)N2CCOCC2)cc1	i	1	nt	nt	98	nt	nt
Cn1nc(C(F)(F)F)cc1-c1ccc(S(N)(=O)=O)s1	i	0.9	nt	nt	103	nt	nt
CCOC(=O)C1CCN(C(=O)CN(C)S(=O)(=O)c2cc(C)ccc2OC)CC1	i	0.98	-1.5	-2	96	-203	125
COc1ccc(CCNC(=O)CCNS(=O)(=O)c2ccc3c(c2)CCN3C(C)=O)cc1OC	i	0.89	-0.4	3	100	nt	nt
CCCOc1ccc(N2C(=O)CC(SC(=NCC)NCC)C2=O)cc1 (stereo not given)	i	0.9	-1.2	-16	79	8	55
CC(C)(C)S(=O)(=O)c1cnc(N2CCOCC2)nc1N	i	0.99	nt	nt	98	nt	nt
CCOc1ccc2c(C)c(Cl)c(=O)oc2c1	i	1	-0.5	-4	98	-46	79
COc1ccc(/C=N/NC(=O)CCCC(=O)NC2CCCCC2)cc1	i	0.97	-0.7	-2	102	nt	nt
COc1ccc(N2CSC3=C(C#N)C(c4cc(OC)c(OC)cc4OC)CC(=O)N3C2)c(OC)c1 (stereo not given)	i	0.97	-2.9	-18	53	nt	nt
O=C(NCc1ccccn1)c1ccc(Cn2cc(C(F)(F)F)ccc2=O)cc1	i	0.91	nt	-4	99	nt	nt
CN(CC#CC(O)(c1ccccc1)c1ccccc1)C(C)(C)C	i	1	nt	nt	115	nt	nt
CC(C)(OC(=O)NC(=O)C(F)(F)F)C(C)(C)OC(=O)NC(=O)C(F)(F)F	i	1.1	nt	-1	107	nt	nt

Compounds as they come (roughly 1.3% active in at least one column).
